# Source: PubChem
# 2A StopGo: lowers the luciferase signal of an FMDV 2A StopGo reporter | human cells with a luciferase reporter of 2A StopGo recoding; control for the full effect not named in the record | Potency, µM (top dose mostly 57.9 µM), for inactives: at the highest dose signal change, negative = less light | 410,000 tested, 1.2% active | AID 1159524; active = well fitted falling curve with a large enough effect; inconclusive = small, poorly fitted or top-dose-only effect; inactive = no such curve, though single readings can be large or run the other way; tested in HEK293T cells; note: % is set by controls: 0 for no effect and ±100 for the full control effect; nearly all actives have a fitted effect of over 45% in size; luciferase light after 4 h
# Cruzain inh noDet: cruzain (T. cruzi) inhibition without detergent; 200,000 tested, 2.3% active; P25779; purified cruzain, Z-FR-AMC fluorescence, no detergent; AID 1476; Potency, µM, without a hit: max response, negative = inhibition, actives largely listed as inhibitors;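 note: plate controls were enzyme without inhibitor for no effect and buffer without enzyme for full effect; nearly all actives have a fitted effect of over 40% in size; top concentration of the series not given in the record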
# Target sequence (P25779 123-467 limits assumed): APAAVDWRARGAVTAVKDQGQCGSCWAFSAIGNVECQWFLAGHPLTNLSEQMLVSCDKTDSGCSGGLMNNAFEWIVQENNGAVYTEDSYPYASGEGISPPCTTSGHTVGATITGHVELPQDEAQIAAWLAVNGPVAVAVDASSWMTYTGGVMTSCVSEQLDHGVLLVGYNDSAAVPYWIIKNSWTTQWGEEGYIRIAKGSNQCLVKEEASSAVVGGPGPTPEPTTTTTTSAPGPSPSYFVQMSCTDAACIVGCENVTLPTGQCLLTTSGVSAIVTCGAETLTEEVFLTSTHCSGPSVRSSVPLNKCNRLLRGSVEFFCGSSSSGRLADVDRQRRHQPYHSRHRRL
#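 Purified cruzain at 1.5 nM, pre-incubated 15 min with compound at room temperature in 100 mM sodium acetate pH 5.5, 5 mM DTT, 0.00005% Triton X-100. Reaction started with 2 uM Z-FR-AMC; AMC fluorescence increase over 60 s gives rate.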
# Cruzain Triton: inhibitors of Trypanosoma cruzi cruzain with detergent. P25779. purified cruzain, Z-FR-AMC fluorescence, 0.01% Triton. Potency, µM, without a hit: max response, negative = inhibition, actives largely listed as inhibitors. 200,000 tested, 0.43% active;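 note: plate controls were neutral wells for no effect and buffer without enzyme for full effect; nearly all actives have a fitted effect of over 40% in size; top concentration of the series not given in the record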
#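 Purified cruzain (1.5 nM final) was preincubated with compounds for 15 min at room temperature in 100 mM sodium acetate pH 5.5, 5 mM DTT, 0.01% Triton X-100. Reaction started with 2 uM Z-FR-AMC; AMC fluorescence change over 60 s gave activity.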
# SARS PLP yeast: blocks SARS-CoV papain-like protease in a yeast assay | AID 485353 | Potency, µM (top dose mostly 32.9 µM), inactives show at the highest dose activity, positive = growth rescue | 330,000 tested, 0.19% active | S. cerevisiae expressing SARS-CoV PLpro, growth rescue; control for the full effect not named in the record; active means well fitted rising curve with a large enough effect; inconclusive means small, poorly fitted or top-dose-only effect; inactive means no such curve, though single readings can be large or run the other way; note: 0% is about no effect; nearly all actives have a fitted effect of over 55% in size; growth read by luminescence after 48 h
# MARV entry inh: inhibitors of Marburg virus binding or cell entry; Marburg virus pseudotyped entry inhibition, cell reporter; control for the full effect not named in the record; about a third of the inactives were read at about 46 µM; Potency, µM (titrated, usually from 37.8 µM), without a hit: at the highest dose activity change, negative = inhibition, hits mostly inhibitors; 300,000 tested, 1.8% active; AID 540276; active = well fitted inhibition curve with a large enough effect; inconclusive = small, poorly fitted or top-dose-only effect, or effect the other way; inactive = flat fitted curve, though single readings scatter; tested in HEK293 cells; about a fifth of its hits are not listed in these tables; note: % is set by controls: 0 for no effect and ±100 for the full control effect; luciferase read-out
# NS1 inh: inhibitors of influenza NS1 protein function. Potency, µM (series often up to 46.1 µM), without a hit: at the top dose activity, positive = more growth. 270,000 tested, 0.4% active. S. cerevisiae slowed by influenza A NS1, growth recovery by OD600; active means well fitted rising curve with a large enough effect; inconclusive means small, poorly fitted or top-dose-only effect; inactive means no such curve, though single readings can be large or run the other way; note: nearly all actives have a fitted effect of over 50% in size
#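 A cell-based growth assay was used: compounds that relieve NS1-induced slow growth of budding yeast raise OD600. Assay medium was yeast nitrogen base with ammonium sulphate and -URA supplement, pH 6.0, with 2% galactose.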
# RE007 growth inh: less growth of the S. pombe RE007 Vpr strain | S. pombe RE007 Vpr strain, BacTiter-Glo ATP luminescence, 24 h; control for the full effect not named in the record | Potency, µM (titrated, usually from 92.2 µM), for the others: at the highest dose activity change, negative = less growth | 360,000 tested, 0.21% active | AID 651644; active = well fitted falling curve with a large enough effect; inconclusive = small, poorly fitted or top-dose-only effect; inactive = no such curve, though single readings can be large or run the other way;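 note: % is set by controls: 0 for no effect and ±100 for the full control effect; nearly all actives have a fitted effect of over 50% in size; the assay follows cell death caused by Vpr and the record does not say whether a fall means rescue or toxicity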
#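 Fission yeast strain RE007, carrying one chromosomally integrated HIV-1 vpr copy, was seeded at OD 0.01 in PMG+AL medium with 23 nL pinned compound. After 24 h at 30 °C and 99% humidity, viability was read by BacTiter-Glo luminescence.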
# Lassa entry inh: blocks Lassa virus binding to or entry into cells. Lassa virus pseudotype entry inhibition, cell reporter; control for the full effect not named in the record. Potency, µM (series often up to 37.9 µM), inactives show at the highest dose activity change, negative = inhibition, most hits filed as inhibitors. 300,000 tested, 1.2% active. AID 540256; active means well fitted inhibition curve with a large enough effect; inconclusive means small, poorly fitted or top-dose-only effect, or effect the other way; inactive means flat fitted curve, though single readings scatter; tested in HEK293 cells; note: % is set by controls: 0 for no effect and ±100 for the full control effect; nearly all actives have a fitted effect of over 50% in size; luciferase read-out
# * = called active by the depositor; ? = inconclusive; · = no result given; [ ] = dose if it differs, or a comment. Unless noted, calls come from the whole dose curve; as a rule, active = well fitted curve in the direction sought with a large enough effect; inconclusive = small, poorly fitted or top-dose-only effect, or another doubt; inactive = no such curve, though single readings can be large; an effect the other way counts as inactive or inconclusive. Potency is the fitted concentration of half-maximal effect.
# Under each structure: NS1 inh	2A StopGo	Cruzain Triton	RE007 growth inh	Lassa entry inh	MARV entry inh	Cruzain inh noDet	SARS PLP yeast
> CNC(=O)C1C2C=CC3(O2)C1C(=O)N(CCOC)C3C(=O)NCc1ccc(OC)cc1 (configuration not stated)
 : 3%	-10%	2.5%	-1%	13%	?	-6%	-6%
> CCC1CCCCN1Cc1ccc(CNC(=O)CCc2nnc3ccc(N4CCCCC4)nn23)o1 (configuration not stated)
 : -2%	-5%	·	-10%	17%[46.1 µM]	-25%[46.1 µM]	·	0%
> CCC(C)C(=O)Nc1nnc(SCC(=O)Nc2ccc(F)cc2)s1 (configuration not stated)
 : -2%	-21%	·	-3%	-15%	-23%	·	0%
> Cc1nc(CNS(=O)(=O)c2ccc(F)cc2)cs1
 : 0%	-3%	·	4%	11%	-12%	·	-1%
> C=CCN(Cc1nc(-c2ccccc2)no1)C(=O)c1ccco1
 : 8%	-14%	·	10%	6%[46.1 µM]	13%[46.1 µM]	·	3%
> Cc1cc(C)n(-c2ccc(C(=O)OCc3nnc(-c4ccccc4)o3)cc2)n1
 : -42%	9%	1.0%	-13%	16%	5%	-18%	5%
> COCCCNCCCCOc1ccc(Br)cc1Cl
 : 7%	-23%	-5.9%	-5%	?	?	-9%	-11%
> NC(N)=NS(=O)(=O)c1ccc(N/C=C/C(=O)c2ccc(Cl)c(Cl)c2)cc1
 : 3%	-12%	·	-1%	·	·	·	0%
> C=C(C)CSC1=C(C#N)C(c2ccccc2Cl)CC(=O)N1 (configuration not stated)
 : -3%	-26%	-2.0%	0%	-9%	3%	1%	4%
> COc1cc(CC(CC(=O)O)CC(C)OCc2ccccc2)cc(OC)c1 (configuration not stated)
 : 3%	-8%	-1.8%	25%	12%	12%	29%	14%
> CCC(=NCc1cccnc1)c1c(O)n(-c2ccc(C)cc2)c(=O)[nH]c1=O
 : -1%	3%	·	3%	·	·	·	0%
> COc1ccc(NC(=O)CC2C(=O)N(c3ccccc3)C(=O)N2CCc2sccc2C)cc1 (configuration not stated)
 : ·	9%	-2.1%	·	?	-28%[46.1 µM]	-3%	·
> COc1ccc(Br)cc1CNC(=O)c1cc(=O)[nH]c2ccc(S(=O)(=O)N3CCCCC3C)cc12 (configuration not stated)
 : ·	-17%	-0.2%	·	-16%[46.1 µM]	·	?	·
> O=C(C/C=N/OCc1c(Cl)cccc1Cl)c1ccccc1
 : -11%	21%	5.6%	-23%	-9%	-7%	-17%	-2%
> COC(=O)c1cc2ccc(OC)c(OC)c2c(=O)s1
 : -7%	31%[activator]	2.8%	-14%	1%	5%	-3%	-3%

# Additional structures.
# Under each structure: NS1 inh	2A StopGo	Cruzain Triton	RE007 growth inh	Lassa entry inh	MARV entry inh	Cruzain inh noDet	SARS PLP yeast
> Nc1ncc(Br)cc1S(=O)(=O)Nc1ccccc1F
 : -1%	24%	·	10%	10%[46.1 µM]	-7%[46.1 µM]	·	-4%
> O=C1CC(c2nc3ccccc3n2CCC2CCCCC2)CN1c1ccccc1Cl (configuration not stated)
 : ·	-25%	-15%	·	?	?	23%	·
> O=S(=O)(Nc1nc2n(n1)C(c1ccc(F)cc1)C=C(c1ccccc1)N2)c1ccccc1 (configuration not stated)
 : ·	-1%	-5.1%	·	-13%[46.1 µM]	12%[46.1 µM]	-11%	·
> CC(=O)c1ccc(NC(=S)NCCc2cccc(Cl)c2)cc1
 : -8%	36%[activator]	·	-9%	?	?	·	-3%
> Cc1nnc(-n2cnc3ccccc32)c2ccccc12
 : 6%	10%	5.6%	5%	2%	30%	5%	2%
> COc1cccc(N(C(C)=O)c2nc(C)cc(C)c2C#N)c1
 : -6%	29%	3.0%	16%	-6%	-3%	-4%	4%
> COc1ccccc1-c1ccc(SCC(=O)Nc2cc(C)on2)nn1
 : ·	-1%	·	3%	-13%	-1%[46.1 µM]	·	-4%
> O=C(OCc1csc(-c2ccccc2)n1)c1cccs1
 : -76%	-25%	-4.2%	-9%	7%	?	-7%	-12%
> CCOC(=O)CC(=O)CSc1nc2c(cc1C#N)CCC2
 : 16%	0%	5.5%	-7%	6%	-19%	-10%	2%
> CCC(C)NC(=O)c1ccc2c(Cl)c3c(nc2c1)CCC3 (configuration not stated)
 : -9%	37%[activator]	·	-27%	·	·	·	-1%
> O=C(O)CCN1C(=O)C2C3C=CC(C2C1=O)C1C(=O)N(CCC(=O)O)C(=O)C31 (configuration not stated)
 : 3%	-5%	·	-3%	·	·	·	-2%
> COc1ccc(Nc2cc(C)nc(-n3nc(C)cc3C)n2)cc1
 : -139%	?	5.4%	-19%	·	1.3µM*	18%	-10%
> CC(NC(=O)c1cc(F)c(F)cc1Cl)c1ccncc1 (configuration not stated)
 : -2%	-21%	·	4%	8%[46.1 µM]	7%[46.1 µM]	·	1%
> COc1ccc(-c2ccc(-c3noc(-c4cccc(OC)c4)n3)c(OC)n2)cc1
 : -5%	·	-17%	-13%	2%	10%	14%	12%
> Cc1ccc(NC(=O)C(Nc2cccc(C)c2)c2ccccc2)cc1 (configuration not stated)
 : ?	44%[activator]	-6.7%	15%	2%	?	-20%	-42%

# (cont.)
# Under each structure: NS1 inh	2A StopGo	Cruzain Triton	RE007 growth inh	Lassa entry inh	MARV entry inh	Cruzain inh noDet	SARS PLP yeast
> CCn1c(SCc2cccc(F)c2)nnc1-c1cccnc1
 : -2%	3%	·	-9%	-3%	?	·	-4%
> CCOC(=O)c1c(C)c(C)n2c1NC(=O)C2
 : 27%	-8%	-1.3%	5%	·	·	7%	·
> c1ccc(C2CC(c3ccccc3)n3c(nc4ccccc43)N2)cc1 (configuration not stated)
 : 4%	6%	1.5%	-15%	?	-11%	13µM*	-19%
> CCCCN(CC)CCCNC(=O)c1nn(C)c2c1CS(=O)(=O)c1ccccc1-2
 : ·	-1%	-3.6%	·	15%[46.1 µM]	·	5%	·
> CCOC(=O)c1csc(NC(=O)CSc2nnnn2-c2ccc(OC)c(OC)c2)n1
 : 7%	?	-1.6%	4%	19%	-6%	-4%	17%
> O=C1N(Cc2cccnc2)C[C@@H]2C[C@@H](c3cccc(C(F)(F)F)c3)N3CCC[C@@]123
 : 7%	19%	·	2%	-23%	·	·	1%
> COc1ccc(C)cc1NC1=NC(C)(C)CS1
 : ·	2%	·	0%	4%	3%[46.1 µM]	·	-3%
> Cc1nn(CC(=O)NCCc2ccccc2Cl)c(=O)c2nn(-c3ccccc3)c(C)c12
 : ·	-12%	-0.8%	·	10%[46.1 µM]	·	?	·
> Cc1cccc(NC(=O)C2CC(=O)N(Cc3ccccc3)C2)n1 (configuration not stated)
 : ·	-25%	·	8%	19%[46.1 µM]	1%	·	-7%
> CCCCC(=O)Nc1ccc(NC(=O)c2ccc3c(c2)OCO3)cc1OC
 : -18%	26%	0.5%	-6%	15%	3%	-9%	0%
> CN(Cc1ccccn1)Cc1nc(-c2ccc(Cl)cc2)no1
 : 1%	15%	·	-12%	·	·	·	0%
> CSC1=N/C(=C\c2ccc(Cl)cc2)C(=O)N1N(C)C
 : -10%	-3%	·	-7%	6%	-3%[46.1 µM]	·	0%
> COC(=O)c1ccc(N2CCOCC2)c(NC(=O)c2ccco2)c1
 : -1%	-7%	·	-8%	-7%	25%	·	-13%
> O=C(NCc1ccc(F)cc1)Nc1cccc([N+](=O)[O-])c1
 : 9%	7%	·	-14%	·	·	·	1%
> O=C(NCc1cccnc1)c1ccccc1-c1ccccc1
 : -1%	-7%	·	18%	1%	1%[46.1 µM]	·	1%

# Other compounds.
# Under each structure: NS1 inh	2A StopGo	Cruzain Triton	RE007 growth inh	Lassa entry inh	MARV entry inh	Cruzain inh noDet	SARS PLP yeast
> NC(=O)NC(=O)CSc1cccc(C(F)(F)F)c1
 : -3%	·	0.4%	5%	0%	2%	0%	8%
> CCOc1ccc(Cn2nnc(C(=O)NCc3ccccc3)c2N)cc1
 : 7%	?	-4.3%	4%	·	·	7%	-6%
> CC(C)n1cc(CN2CCCC(CNS(=O)(=O)c3cccc4cccnc34)C2)cn1 (configuration not stated)
 : 11%	-6%	·	-2%	11%[46.1 µM]	-10%[46.1 µM]	·	1%
> CC(=O)Nc1cc(C(=O)NCc2ccc(F)cc2)ccc1Sc1ccc(F)cc1
 : ·	-26%	-0.4%	·	-20%[46.1 µM]	·	-10%	·
> NS(=O)(=O)c1ccc(CCNC(=O)c2ccc(Cl)c(S(=O)(=O)NCc3ccco3)c2)cc1
 : ·	-27%	·	7%	9%[46.1 µM]	-18%[46.1 µM]	·	7%

# In the list so far, these contain an aryl thioether with sulfur outside any ring:
# Under each structure: NS1 inh	2A StopGo	Cruzain Triton	RE007 growth inh	Lassa entry inh	MARV entry inh	Cruzain inh noDet	SARS PLP yeast
> CCC(C)C(=O)Nc1nnc(SCC(=O)Nc2ccc(F)cc2)s1 (configuration not stated)
 : -2%	-21%	·	-3%	-15%	-23%	·	0%
> COc1ccccc1-c1ccc(SCC(=O)Nc2cc(C)on2)nn1
 : ·	-1%	·	3%	-13%	-1%[46.1 µM]	·	-4%
> CCOC(=O)CC(=O)CSc1nc2c(cc1C#N)CCC2
 : 16%	0%	5.5%	-7%	6%	-19%	-10%	2%
> CCn1c(SCc2cccc(F)c2)nnc1-c1cccnc1
 : -2%	3%	·	-9%	-3%	?	·	-4%
> CCOC(=O)c1csc(NC(=O)CSc2nnnn2-c2ccc(OC)c(OC)c2)n1
 : 7%	?	-1.6%	4%	19%	-6%	-4%	17%
> NC(=O)NC(=O)CSc1cccc(C(F)(F)F)c1
 : -3%	·	0.4%	5%	0%	2%	0%	8%
> CC(=O)Nc1cc(C(=O)NCc2ccc(F)cc2)ccc1Sc1ccc(F)cc1
 : ·	-26%	-0.4%	·	-20%[46.1 µM]	·	-10%	·
